# VDR inhibitor = inhibitors of human vitamin D receptor; VDR-SRC2-3 peptide fluorescence polarization, 2 h; Potency, µM, for inactives: max response, negative = inhibition, actives largely listed as inhibitors; P11473; 400,000 compounds, 0.93% hits; active means well fitted inhibition curve with a large enough effect; inconclusive means small, poorly fitted or top-dose-only effect, or another doubt; inactive means no such curve, though single readings can be large or run the other way; further: series mostly up to about 120 µM
# Target sequence (P11473 whole entry, looked up): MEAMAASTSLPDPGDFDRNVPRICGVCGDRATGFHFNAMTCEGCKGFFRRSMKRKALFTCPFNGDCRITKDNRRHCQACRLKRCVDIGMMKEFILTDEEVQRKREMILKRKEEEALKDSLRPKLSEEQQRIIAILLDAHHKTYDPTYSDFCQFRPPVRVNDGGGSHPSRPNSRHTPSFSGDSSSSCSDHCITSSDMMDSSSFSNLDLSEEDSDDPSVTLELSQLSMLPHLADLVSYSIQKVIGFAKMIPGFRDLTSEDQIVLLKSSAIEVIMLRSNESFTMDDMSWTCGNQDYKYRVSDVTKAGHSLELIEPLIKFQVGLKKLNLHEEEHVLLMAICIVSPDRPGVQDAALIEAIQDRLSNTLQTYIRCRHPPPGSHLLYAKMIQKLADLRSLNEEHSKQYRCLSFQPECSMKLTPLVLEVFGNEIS
#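 VDR–SRC2-3 interaction, FP format. Cmpds 23 nl via pintool, brief spin, 2 h ambient incubation.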
# The depositor's hits bear a star; ? = inconclusive. On the % scale 0 is the no-effect control and ±100 the full control effect; potency means the concentration at half of the fitted maximal effect.
Molecule	VDR inhibitor
Cc1cc2c(n1-c1ccc(C(=O)NCCc3ccc(Cl)cc3)cc1)CCC(C)C2 (centres undefined)	-1%
O=C(OC1Cc2c(O)cc(O)cc2OC1c1cc(O)c(O)c(O)c1-c1c(C2Oc3cc(O)cc(O)c3CC2O)cc(O)c(O)c1O)c1cc(O)c(O)c(O)c1 (centres undefined)	-14%
Cc1cccc(OC(C)C(=O)Nc2ccc3c(c2)OCCO3)c1 (centres undefined)	-13%
CCOc1cc(/C=C(\C#N)C(N)=O)ccc1OS(=O)(=O)c1ccccc1	-14%
COC(=O)c1ccc2c(c1)c(I)c(-c1ccc(OC)cc1)n2C	0%
Cc1ccc(COc2cccc3c2CCN(Cc2ccc(F)cc2)C3=O)cc1	?
Cc1ccc(-c2cc(C(F)(F)F)n3nc(C(=O)NCCCn4ccnc4)cc3n2)cc1C	-5%
COc1ccc(C(=O)CSc2nnc(CN3CCCCC3)n2-c2ccc(Cl)cc2)cc1OC	1%
O=C(CSc1ncn(-c2ccccc2)n1)Nc1nc2ccccc2s1	-15%
O=C1[C@H]2[C@@H](c3ccc(F)cc3)N3C(=O)N(c4ccccc4)C(=O)[C@@]3(Cc3ccc(Cl)cc3)[C@H]2C(=O)N1C1CCCCC1	5%
Cc1cc2cc(CCNC(=O)c3ccc(Br)o3)c(=O)[nH]c2cc1C	-13%
O=S(=O)(c1cccc2ccccc12)N1CCCCC1	3%
CCOc1ccc(NC(=O)C2CCCN(S(=O)(=O)c3c(C)noc3C)C2)cc1 (centres undefined)	-3%
CN1CC(COCc2ccccc2)Oc2ccccc2S1(=O)=O (centres undefined)	-13%
O=C(c1cc(C(F)(F)F)cc(C(F)(F)F)c1)N1CCC[C@@]2(CCN(c3ccccn3)C2)C1	?
O=C(COc1cccnc1[N+](=O)[O-])NCCc1ccc(Cl)cc1Cl	10%
COc1cccc(N2CCN(c3ncnc4onc(-c5ccc(Cl)cc5)c34)CC2)c1	0%
COC(=O)C1=C[C@@H](C(=O)OC)C2C3=C(C(=O)[C@@]2(C)NC(=O)c2ccccc2)[C@H](C)n2c(=O)n(-c4ccccc4)c(=O)n2[C@@H]3C1 (some centres undefined)	-18%
Cc1ccc(Cl)cc1N1CCN(C(=S)NCCc2ccccc2)CC1	6%
CC1=C(C)CC(C(=O)Nc2ccc(C(=O)N3CCOCC3)cc2)C(C(=O)O)C1 (centres undefined)	-22%
COc1ccccc1CNC(=O)c1ccc(OC(C)C)cc1	0%
COc1ccc(CNC(=O)CSc2nnc(C)c(=O)[nH]2)cc1	14%
Cc1ccc(C(=O)NC(=S)Nc2ccc(-c3ccc(CO)o3)cc2)cc1	3%
O=C(NC1CCCCC1)C1CCCN(S(=O)(=O)c2cccc3cccnc23)C1 (centres undefined)	-12%
CC(=O)NC1CC2CCCC(C1)N2CC(=O)Nc1ccccc1 (centres undefined)	6%
CCCn1c(C2CCCN2c2nc(-c3ccc(C)cc3)cs2)nc2ccccc21 (centres undefined)	-12%
CCCC(=O)c1cc(F)c(N2CCN(C(=O)OCC)CC2)cc1C	7%
N#Cc1ccc(N2CCCC2C(=O)O)c([N+](=O)[O-])c1 (centres undefined)	-8%
Cc1cc(N2CCN(c3ccc(F)cc3)CC2)nc2cc(O)ccc12	18%
CCOc1ccc(S(=O)(=O)N(CC(=O)O)c2ccccc2)cc1	-11%

# Part of the list above, with the structure last:
VDR inhibitor	molecule
0%	COc1cccc(N2CCN(c3ncnc4onc(-c5ccc(Cl)cc5)c34)CC2)c1
-18%	COC(=O)C1=C[C@@H](C(=O)OC)C2C3=C(C(=O)[C@@]2(C)NC(=O)c2ccccc2)[C@H](C)n2c(=O)n(-c4ccccc4)c(=O)n2[C@@H]3C1 (some centres undefined)
6%	Cc1ccc(Cl)cc1N1CCN(C(=S)NCCc2ccccc2)CC1
-22%	CC1=C(C)CC(C(=O)Nc2ccc(C(=O)N3CCOCC3)cc2)C(C(=O)O)C1 (centres undefined)
0%	COc1ccccc1CNC(=O)c1ccc(OC(C)C)cc1
14%	COc1ccc(CNC(=O)CSc2nnc(C)c(=O)[nH]2)cc1
3%	Cc1ccc(C(=O)NC(=S)Nc2ccc(-c3ccc(CO)o3)cc2)cc1
-12%	O=C(NC1CCCCC1)C1CCCN(S(=O)(=O)c2cccc3cccnc23)C1 (centres undefined)
6%	CC(=O)NC1CC2CCCC(C1)N2CC(=O)Nc1ccccc1 (centres undefined)
-12%	CCCn1c(C2CCCN2c2nc(-c3ccc(C)cc3)cs2)nc2ccccc21 (centres undefined)
7%	CCCC(=O)c1cc(F)c(N2CCN(C(=O)OCC)CC2)cc1C
-8%	N#Cc1ccc(N2CCCC2C(=O)O)c([N+](=O)[O-])c1 (centres undefined)
18%	Cc1cc(N2CCN(c3ccc(F)cc3)CC2)nc2cc(O)ccc12
-11%	CCOc1ccc(S(=O)(=O)N(CC(=O)O)c2ccccc2)cc1

# Continued:
Molecule	VDR inhibitor
CC(C)(C)OC(=O)C[C@H]1C/C=C\C[C@@H](CC(=O)NCCO)C(=O)N[C@H](Cc2ccccc2)COC1=O	-4%
COc1ccccc1CNc1nc(C)c(C(C)=O)s1	-5%
CCOC(=O)C(C(=O)OCC)C(C)(C)/C(C)=N\Nc1ccc([N+](=O)[O-])cc1[N+](=O)[O-]	-2%
COc1cccc(OCC(=O)Nc2ccccc2C(N)=O)c1	0%
O=C(O)c1cccc(N2C(=O)c3cc([N+](=O)[O-])cc4cc([N+](=O)[O-])cc(c34)C2=O)c1	56µM*
O=C(/C=C/c1cccc(Cl)c1)Nc1ccncc1	-11%
COc1ccc(C(=O)Nc2ccc(N3CCN(Cc4ccccc4)CC3)cc2)cc1	-8%
CCn1c(SCC(N)=O)nc2sc3c(c2c1=O)CCN(C)C3	6%
O=C(NCCN1CCN(Cc2ccccc2)CC1)C1CC(=O)N(C2CCCC2)C1 (centres undefined)	6%
COc1ccc(CCNC(=O)COc2cc(C)cc3oc(=O)cc(C)c23)cc1OC	2%
O=C(NCc1cccnc1)c1cn(-c2ccccc2)nc1-c1cccs1	-11%
CN1OC[C@@H]2CN(C(=O)CCc3ccccc3)[C@H](c3cccc(N4CCOCC4)c3)C[C@@H]21	-1%
O=C(COC(=O)c1ccco1)Nc1ccc(N2CCOCC2)cc1	1%
Cn1cccc1C(=O)OCC(=O)NCc1ccc2c(c1)OCO2	3%
COc1ccc(C)cc1NS(=O)(=O)c1ccc2c(c1)N(C(C)=O)CCO2	-8%
CCc1ccc(NC(=O)C2CCN(S(=O)(=O)c3ccc4c(c3)CC(C)N4C(C)=O)CC2)cc1 (centres undefined)	-6%
Cc1cc(NC(=O)CC23CC4CC(C2)CC(CC(=O)Nc2cc(C)on2)(C4)C3)no1	7%
O=C(CCn1c(=O)oc2ccccc21)N1CCN(c2ccccc2Cl)CC1	-3%
COc1ccccc1NC(=O)CCSc1nnnn1C	-14%
Cc1ccc(NC(=O)COC(=O)c2ccc(-n3cnnn3)cc2)c(Br)c1	-8%
CCN(CC(=O)Nc1ccc(OC)cc1)C(=O)c1ccc(NS(=O)(=O)c2ccc(C(C)=O)cc2)cc1	26%
CCOC(=O)c1ccc(S(=O)(=O)N2CCN(CC(O)COc3ccc(C#N)cc3)CC2)cc1 (centres undefined)	15%
CC1(C)Cc2c(cnn2-c2ccccc2)C(NC(=O)CCCN2CCCC2=O)C1 (centres undefined)	-11%
COc1ccc(CCNC(=O)C(=O)NCc2ccccc2)cc1OC	8%
Cc1ccc(NCCNc2ccc(C)cc2)cc1	-12%
O=C(c1ccco1)N1CCN(Cc2ccc(F)cc2Cl)CC1	-13%
Cc1cccc[n+]1C1C(c2ccccc2)C(C#N)=C(C(=C=[N-])C#N)NC1(O)C1CC1 (centres undefined)	1%
COc1ccc(OC)c(C(=O)NC(CC(N)=O)c2ccc(NCCN3CCCC3)c([N+](=O)[O-])c2)c1 (centres undefined)	?
Cc1cccc(NC(=O)CSc2nnc(-c3ccncc3)n2C)c1	-12%
CCN1CCN(S(=O)(=O)CC2(C)C3CCC2(C)C(=O)C3Br)CC1 (centres undefined)	-8%

# More results follow.
Molecule	VDR inhibitor
NNC(=O)COc1cccc2cccnc12	-2%
CCCCC1=NN(C(=O)c2ccco2)C(O)(C(F)(F)F)C1 (centres undefined)	-11%
CCCOc1ccc(N2C(=O)CC(N(CCc3ccc(S(N)(=O)=O)cc3)C(C)=O)C2=O)cc1 (centres undefined)	3%
CCOC(=O)c1cnc(N)nc1C(F)(F)F	0%
CCN(CC)CCNC(=O)C(=O)Nc1cc2c3c(c1)CCN3C(=O)CC2	-9%
COc1ccc(CSc2nnc(CNS(C)(=O)=O)o2)cc1	-8%
Cc1noc(C)c1COc1cccc(C(=O)Nc2ccc(OCc3ccccc3)cc2)c1	7%
N#Cc1c(NC(=O)c2ccc(Br)o2)n(-c2ccccc2)c2nc3ccccc3nc12	8.9µM*
Cc1nnc(N2CCCC(C(=O)Nc3cccc(C(F)(F)F)c3)C2)c2nn(-c3ccccc3)c(C)c12 (centres undefined)	6%
O=C(Cn1cc([N+](=O)[O-])cn1)N1CCCc2ccccc21	-7%
Cc1ccc(Cl)cc1NC(=O)COC(=O)CC(C)(C)C	3%
CC(C)[C@H](NC(=O)c1ccc(Br)cc1)C(=O)NC1CCCCC1	-4%
CCCn1c(SC(C)C(=O)N2CCOCC2)nc2ccc(Br)cc2c1=O (centres undefined)	-12%
C=C[C@@](C)(O)CC[C@@H]1[C@@]2(C)CCCC(C)(C)[C@@H]2CC[C@@]1(C)O	-29%
CCOC(=O)Cn1c(C)c(Br)c(COC)c(C#N)c1=O	?
Cc1ccc(C2CN(CCC(N)=O)C(=O)CO2)cc1 (centres undefined)	9%
C#CCNC(=O)/C=C/c1ccc(C)cc1	2%
COc1cccc(N/C(SCc2ccccc2C)=C(/C#N)C(=O)NCc2cccs2)c1	6%
Cc1ccc(C(=O)N2CCN(C(=O)c3ccc(C)cc3)C2)cc1	2%
CCC(C)C1/C=C\CC(NC(=O)OCC2c3ccccc3-c3ccccc32)CC(=O)N1Cc1ccccc1 (centres undefined)	2%
Cc1cccc(N2CCN(C(=O)c3cn4ccccc4n3)CC2C)c1 (centres undefined)	-3%
COc1cc(-c2nc(-c3ccc(NC(=O)c4ccc5c(c4)OCO5)cc3)no2)cc(OC)c1OC	12%
CC1=CS/C(=C(/C#N)C(=O)NCc2ccco2)N1c1ccccc1	-5%
Cc1ccccc1-c1nc(-c2cccnc2)no1	-4%
Cn1c(N)c(C(=O)Nc2ccc(-c3ccccc3)cc2)sc1=S	?
CC1CCN(c2ccc(-c3cccc(NC(=O)C(F)(F)F)c3)nn2)CC1	1%
CN(CC(=O)Nc1ccc(F)c(F)c1F)C(=O)CCc1nc2sc3c(c2c(=O)[nH]1)CCCC3	-1%
O=C1NC(CCc2ccccc2)C(=O)N1Cc1ccccc1Cl (centres undefined)	10%
CCN(CC)CCN(C(=O)c1ccc2c(c1)CCCC2)c1nc2ccc(C)cc2s1	-8%
O=C(CCNS(=O)(=O)c1ccc(F)c(Cl)c1)NCc1ccccc1F	-3%

# Further results follow.
canonical_smiles	VDR inhibitor
Cc1cc(-c2cc(-c3ccc(Cl)cc3)on2)nc(NCC2CC2)n1	1%
CC(Sc1nnnn1C)C(=O)NC1CCCC1 (centres undefined)	4%
O=C(NCCCCc1ccccc1)c1cccc(NC(=O)c2ccccc2)c1	-6%
COc1ccc(OCc2nc(N)nc(Nc3cccc(C)c3C)n2)cc1	-6%
CC(=O)c1cc2c(cc1NC(=O)C1CN(C(C)=O)c3ccccc3O1)OCO2 (centres undefined)	-12%
Cc1ccc(C(=O)NCC(=O)OC(C)C(=O)Nc2ccc(N(C)C)cc2)s1 (centres undefined)	4%
COc1cc2c(C#CCO)c(-c3ccc(C#N)cc3)oc(=O)c2cc1OC	17%
Cc1[nH]c2ccccc2c1/C=N/NC(=O)C1CC1(c1ccccc1)c1ccccc1 (centres undefined)	-30%
CCOc1ccc(/C=C2\SC(=S)N(CCC(=O)N(CCO)c3ccccc3)C2=O)cc1	-5%
COC(=O)CSc1nnc(-c2ccccc2O)n1-c1ccc(C)cc1	-8%

# Other structures
canonical_smiles	VDR inhibitor
CCS(=O)(=O)N1CCc2cc(C(=O)NC(C)c3ccccc3)ccc21 (centres undefined)	16%
COc1ccc(S(=O)(=O)N(CCc2ccccc2)CC(=O)O)cc1OC	-7%
CCN(C(=O)COC(=O)c1ccc2ccccc2n1)c1c(N)n(Cc2ccccc2)c(=O)[nH]c1=O	8%
Cc1ccc(S(=O)(=O)Nc2nc3ccccc3nc2NCc2ccco2)cc1	-2%
CC(=O)Oc1ccc2cc(-c3nc4c(s3)CCc3ccccc3-4)c(=O)oc2c1	8%
Cc1ccc(NC(=S)NCCc2ccccc2)c(C)c1	12%
CN(C)C=Nc1nonc1-c1ncn[nH]1	-12%
COc1ccc(-c2nc3sc(CCNC(=O)C(=O)Nc4ccc(OC)c(OC)c4)c(C)n3n2)cc1	8%
O=C(Cc1c(Cl)cccc1Cl)N1CCN(S(=O)(=O)c2cccs2)CC1	-6%
CC(C)c1ccc(N(CC(=O)NC2CCCCC2)C(=O)CCC(=O)Nc2ccccn2)cc1	4%

# Following part:
canonical_smiles	VDR inhibitor
Clc1ccc(-c2nnc(-c3ccccc3Cl)o2)cc1	-12%
CN1CCN(C(=O)c2cnn3c(C(F)(F)F)cc(-c4cccs4)nc23)CC1	-17%
Cn1c(Cc2nc(-c3cnccn3)no2)nnc1SCC(=O)Nc1ccccc1	19%
CC1Cc2ccccc2N1C(=O)c1cc2sccc2n1Cc1ccccc1 (centres undefined)	7%
CCC1(c2ccc(O)cc2)NC(=O)NC1=O (centres undefined)	9%
S=C(NCCc1ccccc1)NC1CC2CCC(C1)N2Cc1ccccc1 (centres undefined)	12%
CCOC(=O)C(CC)(CCC(=O)O)c1csc(Nc2ccc(C)cc2)n1 (centres undefined)	1%
Cc1cccc(C(=O)Nc2ncc(CN3CCOCC3)s2)c1	-8%

# Source: PubChem BioAssay (National Center for Advancing Translational Sciences (NCATS))

# This is a subset; count on the stated rates, not on these rows.
